Arbovirus inh: blocks arbovirus infection. arbovirus infection cell-based antiviral screen. actives 0.37% (n = 200,000). AID 1251. inhibition, % at 10 µM;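 active = inhibition from about 30%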;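 also: bluetongue infection of BSR cells; cell survival read as ATP light after 72 h; 0% = infected wells without compound and 100% = uninfected wells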
YopH inh: YopH (Yersinia) phosphatase inhibition. fluorescence Ex485/Em525. inhibition, %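 (about 10 µM by stock and volumes)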. actives 0.16% (n = 140,000);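 active = inhibition of 50% or more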;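 also: controls were vehicle for no effect and minimum signal wells for full effect; inactives centre near -20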
RecA splice inh: Mtb RecA intein splicing inhibition; P9WHJ3; cell-free RecA intein splicing, fluorescence; inhibition, %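 (about 9 µM by stock and volumes)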; actives 0.75% (n = 290,000); AID 2221; in the data active = inhibition above about 30%;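 also: 0% = vehicle wells and 100% = reference inhibitor control wells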
Target sequence (P9WHJ3 whole entry, looked up, canonical isoform): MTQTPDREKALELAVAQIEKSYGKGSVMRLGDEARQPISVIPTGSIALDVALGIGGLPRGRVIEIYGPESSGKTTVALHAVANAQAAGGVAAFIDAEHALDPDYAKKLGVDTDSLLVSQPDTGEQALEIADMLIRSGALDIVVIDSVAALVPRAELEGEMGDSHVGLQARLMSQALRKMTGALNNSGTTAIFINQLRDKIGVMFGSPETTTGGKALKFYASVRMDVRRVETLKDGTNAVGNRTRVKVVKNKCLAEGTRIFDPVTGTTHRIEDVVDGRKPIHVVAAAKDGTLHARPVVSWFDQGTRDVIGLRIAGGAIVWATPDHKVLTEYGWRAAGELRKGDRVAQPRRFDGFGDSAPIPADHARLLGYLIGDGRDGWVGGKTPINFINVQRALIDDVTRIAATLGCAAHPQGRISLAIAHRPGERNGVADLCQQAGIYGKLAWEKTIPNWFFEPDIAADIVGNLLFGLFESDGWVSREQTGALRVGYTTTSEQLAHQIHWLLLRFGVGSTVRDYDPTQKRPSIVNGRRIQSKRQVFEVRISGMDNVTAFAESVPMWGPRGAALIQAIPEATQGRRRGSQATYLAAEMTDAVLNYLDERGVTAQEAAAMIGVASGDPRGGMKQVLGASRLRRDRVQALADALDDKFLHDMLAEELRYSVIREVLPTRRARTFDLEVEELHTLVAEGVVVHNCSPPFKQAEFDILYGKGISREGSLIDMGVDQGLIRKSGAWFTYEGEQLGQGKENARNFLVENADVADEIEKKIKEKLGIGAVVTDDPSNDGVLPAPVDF
Mtb bLac sens: beta-lactam sensitization of Mtb H37Rv | M. tuberculosis H37Rv growth with meropenem, percent inhibition; hits of this screen are not shown here | inhibition, % at 25 µM | actives 0.27% (n = 330,000) | AID 434955;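 active = about 74% or more and at least 40 points above the plate without the antibiotic, then above 30% in a dose series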;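 also: growth measured after seven days incubation then overnight dye step; 0% = bacteria only wells and 100% = bacteria with antibiotic; twin plates without the antibiotic show which effects depend on it; some results filed as inactive read as strong as hits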
Mtb H37Rv: M. tuberculosis H37Rv growth inhibitors, H37Rv strain (AID 1626); inhibition, % at 10 µM; hits with a dose series show IC50 in µM; M. tuberculosis H37Rv growth inhibition; higher % means a stronger effect; actives 0.95% (n = 220,000);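 active = confirmed in a dose series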;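 also: bacteria incubated seven days before Alamar blue readout; 0% = bacteria only wells and 100% = bacteria with antibiotic wells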
Arbovirus inh repeat: further read-out of Arbovirus inh, marked with its call; inhibition, %; measured here: 10K subset replicate screen; many hits read low in the repeat;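 first of two repeat runs on a subset; 0% = infected and 100% = uninfected wells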
Starred values were filed as active, the others as inactive; / = not tested or not shown.

SMILES	Arbovirus inh	YopH inh	RecA splice inh	Mtb bLac sens	Mtb H37Rv	others
CCC(=NCCCN(C)C)c1c(O)n(-c2ccc(OC)cc2)c(=O)[nH]c1=O	3	-24	-1.1	-6	-8%
CCOC(=O)c1c(-c2ccccc2)oc2ccc(OCC(N)=O)cc12	/	/	-1.0	2	/
COC(CNC(=O)c1ccc2c(c1)nc(C)n2-c1cccc(C)c1)OC	/	/	-2.0	-4	/
O=[N+]([O-])c1ccc(Nc2nc(NC3CCCCC3)nc(N3CCCC3)n2)cc1	-9	/	4.1	100	43%
Cc1nc(Sc2ccc(Cl)cc2)c(C#N)c(C)c1[N+](=O)[O-]	/	/	/	4	11%
O=C(CC(=O)Nc1ccccc1C(=O)O)NNC(=O)Cc1ccccc1	/	/	-0.2	-3	18%
CN1CCN(C2CC(=O)N(c3ccc4c(c3)OCCO4)C2=O)CC1 (stereo unspecified)	3	19	1.2	-6	5%
CN1C(=O)CC(N2CCN(C(=O)c3ccccc3)CC2)C1=O (stereo unspecified)	-2	-20	-0.8	-11	/
COc1ccc(C)cc1NC(=O)CSc1nc2ccccc2nc1N1CCCC1	/	/	4.6	4	/
OCC1(CCOc2ccccc2)CCN(Cc2ccc3cccc(F)c3n2)CC1	-9	/	3.2	0	4%
CCS(=O)(=O)c1ccc(O)c(NC(=O)Nc2ccccc2)c1	9	-11	-3.7	-5	3%
COc1ccc(N(CC(=O)Nc2ccc3c(c2)OCO3)S(C)(=O)=O)c(OC)c1	-3	-47	0.3	3	-9%	Arbovirus inh repeat=0
O=C(N/N=C/c1ccccn1)NC12CC3CC(CC(C3)C1)C2	/	/	1.6	-3	-2%
CCn1c(SCC(=O)NC(C)(C)C)nnc1-c1ccccn1	3	0	-1.9	-7	-10%
Cc1nc(C2CCCCC2)c(-c2ccccc2)c(N2CCOC2=O)c1C	/	/	4.1	0	16%
COc1cc(C2C(C#N)=C(N)Oc3c2ccc2ccccc32)ccc1OCC(=O)Nc1ccc(C)cc1 (stereo unspecified)	-13	-14	4.0	58	17%
CSCCC(NC(=O)C1CCC(C)CC1)C(=O)Nc1ccc(NC(C)=O)cc1 (stereo unspecified)	/	/	0.8	1	/
CN1c2ccccc2C(C)(C)C12C=Nc1c(ccc3ccccc13)O2 (stereo unspecified)	-12	-103	79*	2	15%
O=C(c1ccccn1)N1CCN(S(=O)(=O)c2ccc(F)cc2)CC1	-1	/	0.8	-2	-6%
CCC(C)(NC(=O)c1ccccn1)C(=O)NC1CCCCC1 (stereo unspecified)	-2	-23	2.7	-10	-12%
CC(CN1CCN(C)CC1)OC(=O)c1cccc(Cl)c1 (stereo unspecified)	/	/	-1.0	-5	4%
COc1ccc(OC)c(CNC(=O)c2cc(=O)[nH]c3ccc(S(=O)(=O)N4CCCC4)cc23)c1	10	/	-5.7	-4	10%
O=c1c2ccccc2nc(-c2ccccc2)n1Cc1ccc(Cl)cc1	-6	-24	8.3	-8	-7%
O=C(O)C1C2C=CC(O2)C1C(=O)Nc1ccc(S(=O)(=O)N2CCc3ccccc32)cc1 (stereo unspecified)	0	-4	9.4	-10	-5%
CC(C)OC(=O)c1cn(-c2ccccc2)nc1-c1ccco1	8	-5	15	27	9%
COC(=O)Cn1c2c(c3cc(C)ccc31)CCCC2	3	/	-2.0	18	-1%
CN(c1ccc(C(=O)NC2CCCC2)cc1)S(=O)(=O)c1ccc(Cl)cc1	/	/	-0.4	-2	/
Cc1c(C(=O)O)cccc1-c1ccc(/C=C2\SC(=O)NC2=O)o1	/	/	-8.7	-3	/
CN(C)c1cc[nH]c(=O)c1C#N	2	6	-0.2	-1	-1%
CCOc1c(C(N)=O)c(-c2ccccc2)c2c(=O)[nH]c3ccccc3n12	4	-48	0.9	1	-10%
CC1(C)C2(C#N)C(N)=NC3(OCCO3)C12C#N (stereo unspecified)	-3	-7	1.5	5	4%
O=C(CCc1nnc2ccc(N3CCC4(CC3)OCCO4)nn12)Nc1ccc(F)cc1	/	/	1.9	-9	/
O=C(Cn1cnc2c(nnn2Cc2ccc(Cl)cc2)c1=O)OCc1ccccc1	2	-26	-0.1	2	-1%
C/C(C/C(C)=C1/SC(=S)NC1=O)=C1\SC(=S)NC1=O	33*	/	/	/	0%
COC(=O)NC1CSCC1OC(=O)CN1C(=O)c2ccccc2C1=O (stereo unspecified)	1	-32	-2.4	-9	-6%
C[C@@H](O)[C@H]1C(=O)N2C(C(=O)O)=C(S[C@@H]3CN[C@H](C(=O)N(C)C)C3)[C@H](C)[C@H]12	/	/	-4.0	-7	-1%
O=C(O)c1ccc(CSc2ncn[nH]2)cc1	0	-30	0.2	6	-5%
C/C(=N\OCC(=O)OCC(=O)N(Cc1ccccc1)C(C)(C)C)c1ccc2c(c1)OCO2	/	/	0.9	5	/
CC(Oc1ccc(F)cc1)C(=O)N1CCN(c2ncccn2)CC1 (stereo unspecified)	/	/	-1.8	-17	/
COC(=O)c1cc(C(=O)Cc2ccccc2)c[nH]1	0	/	1.8	-1	2%
CN(C)c1ccc(P(=O)(OCc2ccccc2)C(O)c2ccccc2F)cc1 (stereo unspecified)	/	/	7.2	17	-6%
O=C(CN1CCC(NC(=O)c2cccc(F)c2)CC1)NCc1cccs1	-1	/	-1.0	-2	-17%
CCOC(=O)c1c(NC(=O)C(C)OC(=O)c2ccc(NC(=O)CC#N)cc2)sc2c1CCCC2 (stereo unspecified)	/	/	0.8	-5	/
CCCCCN(C(=O)CCC(=O)OCc1ccc(C(C)(C)C)cc1)c1c(N)n(CCCC)c(=O)[nH]c1=O	/	/	0.5	0	/
O=C1CC(NC2CCN(C(=O)c3cccc(F)c3)CC2)C(=O)N1 (stereo unspecified)	/	/	-1.2	0	/
COC(=O)c1c(N)c2ccccc2[nH]c1=O	1	-8	0.8	-4	-1%
COc1ccc(-c2nc(CC(=O)O)cs2)cc1OC	12	-11	2.3	26	3%
CC(C)c1cc(C(=O)Nc2cc(Br)ccc2O)no1	21	-1	-0.4	95	44%
COc1ccc(CNc2nc(-c3cccnc3)nn2S(C)(=O)=O)cc1	3	/	2.1	-10	3%
CCOC(=O)c1ccccc1NC(=O)COC(=O)CC1CCCCC1	/	/	19	-9	/
Cc1ccc(C(C)C)c(OC(=O)/C=C/c2ccccc2)c1	4	-18	/	90	5%
CC(=O)N1CCC(=O)Nc2ccc([N+](=O)[O-])cc21	7	/	-1.8	7	0%
Cc1c(NC(=O)COC(=O)c2c3c(nc4ccccc24)CCCC3)c(=O)n(-c2ccccc2)n1C	0	-30	-0.2	5	-2%
COc1ccc(C(=O)NC(C)C2CC3CCC2C3)c(OC)c1 (stereo unspecified)	/	/	0.4	14	/
C/C(=N\NC(=O)c1ccc(Br)o1)c1cc2c(cc1NC(=O)CCC(=O)O)OCO2	/	/	-0.8	-7	/
C=CCS/C(N)=N\N=C\c1c(O)ccc2ccccc12	/	/	-4.2	100	14%
COc1ccc(OCCOC(=O)c2cccs2)cc1	1	-23	/	80	1%
COC(=O)c1sccc1NC(=O)c1cc(C)on1	6	-27	-1.0	2	/
O=C1CC(NS(=O)(=O)c2ccc(F)cc2)CN1c1ccc2c(c1)OCCO2 (stereo unspecified)	/	/	1.3	-9	/
CN(C)c1cc(Nc2ccc(O)cc2)c([N+](=O)[O-])c2nonc12	/	/	2.0	-6	-3%

Nothing new here: entries from further up.
SMILES	Arbovirus inh	YopH inh	RecA splice inh	Mtb bLac sens	Mtb H37Rv	others
O=C1CC(NS(=O)(=O)c2ccc(F)cc2)CN1c1ccc2c(c1)OCCO2 (stereo unspecified)	/	/	1.3	-9	/
CN(C)c1cc(Nc2ccc(O)cc2)c([N+](=O)[O-])c2nonc12	/	/	2.0	-6	-3%

(list continues)
SMILES	Arbovirus inh	YopH inh	RecA splice inh	Mtb bLac sens	Mtb H37Rv	others
Fc1ccc(CN2CCCCCCC2)c(F)c1	-3	-32	/	-22	-2%
O=c1[nH]c2ccc(Cl)cc2c(-c2ccccc2)c1CN1CCOCC1	-2	-52	/	13	3%
Cc1cc(C)n(-c2ccc(OCC(=O)O)nn2)n1	6	-31	-1.7	-3	-4%
O=C(CCl)N1N=C(c2ccco2)CC1c1cccs1 (stereo unspecified)	-4	-18	67*	99	67%
Cc1ccc2nc(SCC(=O)NCc3cccs3)[nH]c2c1	1	/	/	-4	0%
COc1ccc(-c2cc(=O)oc3cc(OCC(=O)Nc4ccccn4)ccc23)cc1	/	/	-0.4	71	/
CCOC(=O)C1CCN(C(=O)CSc2nccc(C)n2)CC1	3	/	-3.7	4	1%
CC(=O)Nc1nonc1-c1nc2ccccc2n1Cc1ccccn1	-1	-14	-0.4	3	2%
Cc1ccc(NC(=O)c2sc(Cl)nc2C)c(C)c1	6	-29	-1.0	3	5%
O/N=C1/C2C3C(Br)C4C5CC(C1C53)C24 (stereo unspecified)	8	-20	-3.5	4	3%
O=C(NCCCO)c1nnc(Cc2c(F)cccc2Cl)o1	-3	-5	0.1	-9	-5%
CN1C(=O)/C(=C/c2ccc(OCc3ccc(F)cc3)cc2)NC1=S	/	/	-3.4	20	/
O=C(CSc1nccn1-c1ccc(Cl)cc1)Nc1ccc2c(c1)OCO2	-9	-47	8.9	-5	4%
O=C(CN1C(=O)NC2(CCCC2)C1=O)OCCOc1ccc(F)cc1	/	/	-2.8	-3	/
CC(=O)NS(=O)(=O)c1ccc(NC(=O)c2cc(-c3ccc(C)cc3)nc3ccccc23)cc1	6	-10	-1.3	5	7%
COC(=O)CSc1nnc(-c2cccnc2)n1-c1cc(OC)cc(OC)c1	9	-24	-0.5	-6	-11%
CCc1ccc(NC(=O)C(=O)c2cn(CC(=O)N3CCCCC3)c3ccccc23)cc1	-4	-22	-0.9	-8	14%
CC(OC(=O)COc1ccc(Nc2ccccc2)cc1)C(=O)N(C)c1ccccc1 (stereo unspecified)	/	/	13	100	/
Cc1cc2c(c(=O)n1C1CC1)C(c1cccc(Cl)c1)C(C#N)=C(N)O2 (stereo unspecified)	-8	-33	0.7	9	-1%
O=C(COc1ccccc1[N+](=O)[O-])c1ccccc1	-29	/	-6.4	81	17µM*

3 entries already listed, ordered by count of non-hydrogen atoms, ascending:
SMILES	Arbovirus inh	YopH inh	RecA splice inh	Mtb bLac sens	Mtb H37Rv	others
Cc1ccc2nc(SCC(=O)NCc3cccs3)[nH]c2c1	1	/	/	-4	0%
CCOC(=O)C1CCN(C(=O)CSc2nccc(C)n2)CC1	3	/	-3.7	4	1%
COC(=O)CSc1nnc(-c2cccnc2)n1-c1cc(OC)cc(OC)c1	9	-24	-0.5	-6	-11%

Among those listed so far, these contain bromine:
SMILES	Arbovirus inh	YopH inh	RecA splice inh	Mtb bLac sens	Mtb H37Rv	others
CC(C)c1cc(C(=O)Nc2cc(Br)ccc2O)no1	21	-1	-0.4	95	44%
C/C(=N\NC(=O)c1ccc(Br)o1)c1cc2c(cc1NC(=O)CCC(=O)O)OCO2	/	/	-0.8	-7	/
O/N=C1/C2C3C(Br)C4C5CC(C1C53)C24 (stereo unspecified)	8	-20	-3.5	4	3%

Further results follow.
SMILES	Arbovirus inh	YopH inh	RecA splice inh	Mtb bLac sens	Mtb H37Rv	others
C#CCNC(=O)C1=C[C@H](c2ccc(C#C)cc2)C[C@H](OCc2ccc(CO)cc2)O1	/	/	3.0	-1	-7%
Cc1cc(=O)n2nc(N3CCCC3C(=O)Nc3cccc(Cl)c3C)sc2n1 (stereo unspecified)	/	/	0.8	-7	/
CC(=O)c1cnc2n(c1=O)CCS2	6	/	0.3	1	-5%
CCOC(=O)c1cc2cc(CC(=O)c3ccc(OCC)cc3O)ccc2o1	5	-24	2.9	97	9%
CN(C)S(=O)(=O)c1ccc(Cl)c(NC(=O)COC(=O)[C@@H]2CCCN2C(=O)c2cccs2)c1	-3	/	2.0	7	5%
C/C(=N\N1CCN(c2ccccc2)CC1)c1ccccc1O	/	/	-1.7	3	/
CC(=O)Nc1ccc(OCCOc2ccc(/C=C3\C(=N)N4N=C(C(C)C)SC4=NC3=O)cc2)cc1	/	/	1.4	1	/
COc1ccc(OCC(=O)Nc2nccs2)cc1	-4	/	7.7	-6	-8%
Cc1ccccc1-c1nc(Cc2ccccc2)no1	-6	20	5.2	0	5%
COc1cc(/C=N/N(C)C)ccc1OC(=O)c1ccco1	11	/	25	81	9%
CCNC(=S)N(Cc1cc2cc(C)c(C)cc2[nH]c1=O)C1CCCC1	-15	/	3.6	0	0%
CC(OC(=O)CCN=C1NS(=O)(=O)c2ccccc21)C(=O)c1ccccc1 (stereo unspecified)	/	/	-1.1	3	/
CCC(=O)Nc1cccc(NC(=O)c2ccc(C)c([N+](=O)[O-])c2)c1	-4	-46	1.0	2	15%
O=C(NN=c1c(=O)c2ccccc2c1=O)c1ccccc1	-7	68*	91*	9	66%
NS(=O)(=O)c1ccc(Nc2ncccc2[N+](=O)[O-])cc1	-1	4	1.2	34	1%
N#Cc1ccc(C(=O)NC2=NCCS2)cc1	/	/	1.0	0	/
CN(C)S(=O)(=O)c1ccc(Cl)c(NC(=O)CN2CCC(Cc3ccccc3)CC2)c1	-14	/	11	55	-5%

Assay outcomes deposited in PubChem BioAssay by several laboratories.

The list is partial, so the mix of outcomes need not match the whole.
